# High-throughput results deposited in PubChem by several laboratories.
# CSC inhib – cancer stem cell viability inhibitors, primary screen, luminescence; cancer stem cell-like cells viability; inhibition, % at 7.5 µM; hit rate 1.1% among 300,000; AID 2717, 2010;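 active means mean at 75% or more and at least half the replicates too; inconclusive means mean and replicates disagree; tested in HMLE shEcad cells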;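 further: 0% = median of negative and 100% = median of positive control wells; the first replicate is given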
# PABP FP inh – PABP poly(A) RNA binding inhibitors, primary screen, biochemical, fluorescence polarization, uHTS | inhibition, % at 35 µM | AID 2014, 2009 | Polyadenylate-binding protein 1 (Homo sapiens), P11940 | hit rate 1% among 290,000;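 active means 50% or more with normal probe brightness, or confirmed in later tests; inconclusive means above 50% with abnormal brightness, or retests that disagree; inactive means below 50% or failed in later tests; about a fifth of its hits are not listed in these tables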;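 further: calls also rest on retests at 20 µM and on dose response follow-up; controls were probe without protein and protein plus probe with vehicle; some compounds called inactive have numbers as strong as hits; many hits fall short of the cut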
# Target sequence (P11940 whole entry, looked up): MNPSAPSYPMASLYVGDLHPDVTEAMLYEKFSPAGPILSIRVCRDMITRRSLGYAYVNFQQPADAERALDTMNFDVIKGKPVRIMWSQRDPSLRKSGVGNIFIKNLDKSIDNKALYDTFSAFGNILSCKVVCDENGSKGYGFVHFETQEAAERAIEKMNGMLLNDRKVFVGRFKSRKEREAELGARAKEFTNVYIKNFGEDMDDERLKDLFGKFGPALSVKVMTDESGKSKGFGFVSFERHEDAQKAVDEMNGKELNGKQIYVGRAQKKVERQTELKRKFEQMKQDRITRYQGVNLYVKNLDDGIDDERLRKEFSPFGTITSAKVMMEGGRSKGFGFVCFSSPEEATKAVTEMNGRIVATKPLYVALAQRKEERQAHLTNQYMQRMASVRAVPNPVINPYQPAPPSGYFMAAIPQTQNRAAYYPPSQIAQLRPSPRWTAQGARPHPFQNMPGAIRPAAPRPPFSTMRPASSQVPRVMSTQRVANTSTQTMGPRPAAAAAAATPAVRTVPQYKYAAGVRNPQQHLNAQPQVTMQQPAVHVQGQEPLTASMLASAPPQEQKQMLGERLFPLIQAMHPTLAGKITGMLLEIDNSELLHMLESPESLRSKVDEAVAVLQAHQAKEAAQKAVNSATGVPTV
# Yeast UUG start – modulators of yeast start codon fidelity, primary screen, whole organism, S. cerevisiae, single point, plate reader. hit rate 0.13% among 350,000. S. cerevisiae UUG-firefly luciferase reporter, luminescence/redox ratio. activity score, % at 18.7 µM;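 active means replicate mean at a twofold rise or more, about +100% in these data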;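 further: firefly luciferase made from a UUG start codon reports start codon fidelity; reporter light over untreated wells divided by growth signal over untreated wells; some hits fall short of that in this replicate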
# eIF4H FP inh – human eIF4H binding inhibitors, primary screen, translation initiation inhibitor project, biochemical, uHTS, fluorescence polarization; Eukaryotic translation initiation factor 4H (Homo sapiens), Q15056; eIF4H fluorescence polarization binding assay; inhibition, % at 35 µM; hit rate 0.94% among 290,000; AID 2012, 2009;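 active means 50% or more with normal probe brightness, or confirmed in later tests; inconclusive means above 50% with abnormal brightness, or retests that disagree; inactive means below 50% or failed in later tests; about a fifth of its hits are not listed in these tables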;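 further: calls also rest on retests at 20 µM and on dose response follow-up; 0% = protein and probe with vehicle and 100% = probe without protein; strong numbers were not always called active; many hits fall short of the cut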
# HIV Env fusion – inhibitors of HIV-1 Env-driven cell-cell fusion, primary screen, HeLa-JRFL effector, CEM21 target cells, luciferase; AID 651610, 2012; inhibition, % at 12.3 µM; hit rate 1.1% among 360,000;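 active means mean replicate inhibition score of at least 50 and every replicate individually at or above 50; inconclusive means only one of the two criteria met; inactive means mean below 50 and not all replicates reaching 50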;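 further: 0% = plate neutral controls and 100% = maraviroc near 300 nM; one replicate is shown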
# Rce1 inhib – yeast Rce1p protease inhibitors, primary screen, biochemical, fluorescence, cell-free homogeneous; CAAX prenyl protease 2 (Saccharomyces cerevisiae (strain ATCC 204508 / S288c)), Q03530; calls only; hit rate 0.27% among 290,000; AID 2563, 2010; yeast membranes, quenched prenylated peptide cleavage fluorescence;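 active means fall in fluorescence gain of 50% or more versus controls, with final raw signal at or below 3038400; inconclusive means same 50% fall but final raw signal above 3038400; inactive means fall in fluorescence gain under 50%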;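 further: plate controls were neutral control wells for no effect and wells lacking membranes for full effect; tested at 10 µM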
# Target sequence (Q03530 whole entry, looked up): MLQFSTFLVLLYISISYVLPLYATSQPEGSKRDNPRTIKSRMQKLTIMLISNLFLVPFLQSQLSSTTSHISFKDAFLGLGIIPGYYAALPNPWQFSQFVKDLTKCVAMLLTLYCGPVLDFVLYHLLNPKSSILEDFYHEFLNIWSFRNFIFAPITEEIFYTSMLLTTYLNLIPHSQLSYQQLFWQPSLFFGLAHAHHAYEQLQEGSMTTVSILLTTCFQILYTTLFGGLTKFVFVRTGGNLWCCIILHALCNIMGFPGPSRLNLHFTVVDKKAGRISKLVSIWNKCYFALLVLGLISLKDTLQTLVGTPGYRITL
# MT1-MMP act inh – blockers of MT1-MMP proenzyme processing, primary screen, HT1080 RFP-PRO-GFP cells, GFP/RFP fluorescence; GFP/RFP ratio fluorescence, overnight; percent of plate control window, DMSO zero; GFP/RFP ratio change, % at 20 µM; hit rate 0.061% among 360,000; AID 651647, 2012;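 active means GFP/RFP ratio change of at least 30% with cell ATP level not reduced by more than half and red fluorescence within 50% of control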; further: strong numbers were not always called active
#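 Assay system: HT1080 RFP-PRO-GFP cells | Dosing: 20 µM single dose, 1% DMSO | Incubation: Cells overnight before dosing, compound overnight, 37 °C, 5% CO2 | Evaluation: GFP/RFP fluorescence ratio | Control set: DMSO-only wells and HT1080 RFP-L50D-GFP cell wells as references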
# eIF4H FP inh retest – further read-out of eIF4H FP inh, marked with its call; inhibition, %; compound at 20 µM; confirmation average;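 mean of two retest wells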
# PABP FP inh retest – also measured in PABP FP inh; calls as there; inhibition, %; compound at 20 µM; confirmation repeats;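 mean of two retest wells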
# MT1-MMP act inh RFP – recorded beside MT1-MMP act inh, whose call it bears; RFP signal change, %; measured here: RFP expression control read;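 0 = vehicle wells; hits needed this value within 50% of zero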
# Active calls of the source: *; i = inactive; ? = inconclusive; · = no result given.
SMILES,CSC inhib,PABP FP inh,Yeast UUG start,eIF4H FP inh,HIV Env fusion,Rce1 inhib,MT1-MMP act inh,MT1-MMP act inh RFP,others
C=CCNC(=S)N1CCC(C(=O)c2ccc(F)cc2)CC1,-25,-3,-18,3,10,i,0,-4,
C=CCn1c(SCC(=O)NCC(c2ccccc2)N(C)C)nnc1C1CCCCC1 (stereo unspecified),-9,·,-10,·,3,·,-4,-1,
Cc1ccc(NC(=O)C2(NC(=O)c3cccc(N4C(=O)CSC4c4ccccc4)c3)CCCCC2)cc1 (stereo unspecified),-8,13,2,17,i,i,-11,-18,
COc1ccccc1NS(=O)(=O)c1ccc(-c2cc(C)no2)s1,-2,2,-16,-4,1,i,-6,-8,
CC(=O)Nc1ccc(NC(=O)C2CCCCC2C(=O)O)cc1 (stereo unspecified),-6,-3,·,-12,18,i,4,7,
CC(C)c1ccc(N(CC(=O)Nc2ccc(S(=O)(=O)N3CCOCC3)cc2)S(C)(=O)=O)cc1,5,-6,-1,-11,4,·,4,7,
COc1ccc(-c2oc3ncnc(NCCCN(C)C)c3c2-c2ccc(OC)cc2)cc1,9,5,-3,-3,15,?,-12,-7,
O=c1ccc(Cl)n[nH]1,3,-1,3,-4,-7,i,-6,0,
COc1cc(-c2nnn(CC#N)n2)ccc1OCc1ccccc1,17,-5,-13,-2,·,i,0,-2,
COc1ccc(CC(N)c2csc(NC(=O)c3cc(C(C)(C)C)oc3C)n2)cc1 (stereo unspecified),·,·,-9,·,-25,·,-10,-10,
Cc1ccc(C(=O)N/N=C2/NC(=O)CC(C(=O)Nc3ccccc3)S2)cc1 (stereo unspecified),7,4,-13,3,3,i,2,4,
COCC1CCCCN1C(=O)c1cc(COc2ccc3ncccc3c2)on1 (stereo unspecified),3,15,-8,-10,26,i,3,-29,
COc1ccc(/C=C/C(=O)OCC(=O)Nc2cc(S(=O)(=O)N(C)C)ccc2Cl)cc1,4,-20,2,0,-4,i,-3,-2,
C=CCCCCCCCC(=O)OC,-14,-13,-4,-4,·,i,-2,-1,
CCO/N=C/C(=O)Nc1ccc(F)cc1F,-8,8,-15,-13,-5,i,0,-2,
Cc1cccc(OCC(=O)Nc2cc(NC(=O)COc3cccc(C)c3)cc(C(=O)O)c2)c1,1,3,-3,-7,11,i,4,6,
CC(C)(C)OC(=O)N1CCC(NC(=O)c2nc[nH]c2C(=O)NC2CCN(C(=O)OC(C)(C)C)CC2)CC1,-17,·,-1,·,-36,·,5,-2,
COc1ccccc1C(=O)NCC(=O)N/N=C/c1ccncc1,-13,-4,·,-3,-9,i,1,2,
Cc1ccc2nc(NS(=O)(=O)c3cn(C)nc3C)sc2c1,-8,2,-25,-10,-21,i,-2,-1,
Fc1ccccc1OCCCCCCN1CCCC1,14,-9,11,-10,?,i,20,-9,
C/C(CCc1ccc2c(c1)OCO2)=N\NC(=O)c1ccccc1Cl,-7,-1,-8,2,·,i,0,3,
CCn1c(CSc2nnc(C)n2-c2ccccc2)nc2cc(S(=O)(=O)N(C)C)ccc21,-19,5,-23,7,-25,i,2,3,
O=C(Nc1cccc(-c2csc(Nc3ccc(Cl)cc3)n2)c1)c1cccc(C(F)(F)F)c1,-18,-9,-21,-6,-18,i,12,-1,
COc1cccc(C2Nc3cccc4cccc(c34)N2)c1,10,26*,·,60*,2,i,-8,0,eIF4H FP inh retest=98*;PABP FP inh retest=72*
COc1ccccc1NC(=S)N(Cc1ccccc1)Cc1cccs1,·,18,-13,-2,-6,i,0,5,

# Sorted by SMILES length (low to high): 12 of the compounds above
SMILES,CSC inhib,PABP FP inh,Yeast UUG start,eIF4H FP inh,HIV Env fusion,Rce1 inhib,MT1-MMP act inh,MT1-MMP act inh RFP,others
Fc1ccccc1OCCCCCCN1CCCC1,14,-9,11,-10,?,i,20,-9,
CCO/N=C/C(=O)Nc1ccc(F)cc1F,-8,8,-15,-13,-5,i,0,-2,
COc1cccc(C2Nc3cccc4cccc(c34)N2)c1,10,26*,·,60*,2,i,-8,0,eIF4H FP inh retest=98*;PABP FP inh retest=72*
COc1ccccc1C(=O)NCC(=O)N/N=C/c1ccncc1,-13,-4,·,-3,-9,i,1,2,
C/C(CCc1ccc2c(c1)OCO2)=N\NC(=O)c1ccccc1Cl,-7,-1,-8,2,·,i,0,3,
C=CCn1c(SCC(=O)NCC(c2ccccc2)N(C)C)nnc1C1CCCCC1 (stereo unspecified),-9,·,-10,·,3,·,-4,-1,
COc1ccc(-c2oc3ncnc(NCCCN(C)C)c3c2-c2ccc(OC)cc2)cc1,9,5,-3,-3,15,?,-12,-7,
CCn1c(CSc2nnc(C)n2-c2ccccc2)nc2cc(S(=O)(=O)N(C)C)ccc21,-19,5,-23,7,-25,i,2,3,
COc1ccc(/C=C/C(=O)OCC(=O)Nc2cc(S(=O)(=O)N(C)C)ccc2Cl)cc1,4,-20,2,0,-4,i,-3,-2,
O=C(Nc1cccc(-c2csc(Nc3ccc(Cl)cc3)n2)c1)c1cccc(C(F)(F)F)c1,-18,-9,-21,-6,-18,i,12,-1,
CC(C)c1ccc(N(CC(=O)Nc2ccc(S(=O)(=O)N3CCOCC3)cc2)S(C)(=O)=O)cc1,5,-6,-1,-11,4,·,4,7,
CC(C)(C)OC(=O)N1CCC(NC(=O)c2nc[nH]c2C(=O)NC2CCN(C(=O)OC(C)(C)C)CC2)CC1,-17,·,-1,·,-36,·,5,-2,

# (further entries)
SMILES,CSC inhib,PABP FP inh,Yeast UUG start,eIF4H FP inh,HIV Env fusion,Rce1 inhib,MT1-MMP act inh,MT1-MMP act inh RFP,others
COc1ccc(/C=C/C(=O)OCC(=O)Nc2cc(C(F)(F)F)ccc2Cl)cc1,3,-1,·,-4,-3,i,9,8,
NC(=O)[C@@H]1CCCCNc2c(F)cc([N+](=O)[O-])cc2C(=O)N[C@@H](CC(=O)O)C(=O)N[C@@H](CCC(=O)O)C(=O)N1,8,2,-1,14,·,i,2,-3,
Cn1ccnc1SCC(=O)Nc1ccc([N+](=O)[O-])cn1,·,-2,-15,-12,·,i,-2,3,
CCN(CC)S(=O)(=O)c1cc(C(=O)N2CCc3ccccc32)ccc1Cl,·,2,-11,-6,34,i,-5,-8,
Cc1ccc(N(C(C)C(=O)Nc2ccc(S(=O)(=O)N3CCOCC3)cc2)S(C)(=O)=O)cc1C (stereo unspecified),-22,-9,-9,2,·,i,-3,-1,
O=C(O)c1ccc(-c2nnn(Cc3ccccc3F)n2)cc1,·,-2,-5,4,-6,i,3,2,
CC(=O)Nc1ccc(NC(=O)COC(=O)c2ccc(Cl)nc2)cc1,·,·,-19,·,-5,·,3,1,
O=c1[nH]c(SCc2cccc([N+](=O)[O-])c2)nc2[nH]ncc12,6,-6,·,-13,-104,i,0,3,
O=c1ncn(-c2ccccc2C(F)(F)F)c2ncccc12,-3,-8,·,-5,-21,·,2,7,
COc1cccc(OC)c1CN1CCCC(C(=O)c2ccccc2SC)C1 (stereo unspecified),2,-13,4,-6,0,i,-2,-3,
COCCn1c(SCC(=O)NC2CCCC2)nnc1-c1ccncc1,8,1,-10,1,-2,i,2,1,
CC(C)CC(C(=O)O)N1C(=O)C2C3c4ccccc4C(c4ccccc43)[C@@H]2C1=O (stereo partly specified),6,0,5,-7,10,i,0,4,
CCOc1cc(/C=C2/SC(=Nc3ccccc3)N(Cc3cccnc3)C2=O)ccc1OCC#N,-7,-15,·,-20,·,i,-10,-13,
COc1ccccc1Oc1c(C)oc2c(CN(C)C)c(O)ccc2c1=O,-17,6,-11,-5,·,i,-2,4,
COCc1cc(=O)[nH]c(/N=C(\N)Nc2ccc(C)cc2)n1,3,0,-6,8,-68,·,9,4,
NNC(=O)c1n[nH]c2c1CC(C1CCCCC1)CC2 (stereo unspecified),28,·,-14,·,-9,·,3,4,
CON(C)C(=O)/C=C/CCCCNC(=O)OC(C)(C)C,·,·,-2,·,4,·,4,3,
Cc1ccc2c(c1)C(=O)C(=O)N2Cc1ccc(C(F)(F)F)cc1,53,·,-19,·,-29,·,-2,1,
O=C1/C(=C/N(C(=O)c2ccco2)c2ccc(Br)cc2)Sc2ccccc21,16,-2,-42,-8,·,i,4,22,
NC(=O)CC(NC(=O)c1ccccc1)c1ccc(N2CCN(c3ccc(F)cc3)CC2)c([N+](=O)[O-])c1 (stereo unspecified),13,4,-11,5,14,i,1,-16,
O=C(Oc1ccccc1)c1ccc2nccnc2c1,-5,-4,-20,-2,-97,i,4,4,
O=C1NC(=O)/C(=C\c2ccc(O)cc2O)S1,14,?,·,?,8,i,-18,-11,
COc1ccc(/C=C/c2cc(=O)c3cc(Cl)ccc3o2)cc1,18,-8,·,-11,1,i,-3,-1,
CCn1c(COc2cccc(C)c2)nnc1SCC(=O)Nc1cccc(C(=O)O)c1,0,75,-13,-5,·,i,0,1,eIF4H FP inh retest=5;PABP FP inh retest=16
COc1cc(C(=O)NCc2nnc(SCC(=O)NC3CCCC3)o2)cc(OC)c1OC,1,11,-19,-5,-8,i,4,3,
# The list goes on:
SMILES,CSC inhib,PABP FP inh,Yeast UUG start,eIF4H FP inh,HIV Env fusion,Rce1 inhib,MT1-MMP act inh,MT1-MMP act inh RFP,others
COc1ccc(Cl)cc1NC(=O)CCCC(=O)c1ccccc1,-2,-1,-21,-13,-7,i,1,-2,
Cc1cc(C(=O)CCl)c(C)n1CCc1ccc(F)cc1,56,-10,-5,-7,15,i,-7,-4,
COc1ccnc(N=CNOCc2ccc(Cl)cc2)c1C#N,-8,-13,0,-3,-8,i,-1,2,
COc1ccc(C(=O)N/N=C/c2ccc(OC)c(COc3ccc(F)cc3F)c2)cc1,30,-10,-19,1,4,i,-1,-4,
CC(COC(=O)c1ccccc1)(COC(=O)c1ccccc1)/[N+]([O-])=C/c1ccccc1,-6,5,·,-5,-10,i,1,-7,
COc1ccc(NC(=O)c2oc3ccccc3c2NC(=O)C(C)(C)C)cc1,55,-6,-1,-1,18,i,-3,6,
Cc1cc(OCC(C)C)ccc1/C(O)=C1/C(=O)C(=O)N(Cc2cccnc2)C1c1ccncc1 (stereo unspecified),-6,-8,-29,3,·,i,9,2,
COC(=O)C1=CN(Cc2ccc(F)cc2)C=C(C(=O)OC)C1c1ccc(O)c(OC)c1,-12,-1,7,-5,-150,i,0,-3,
Cc1ccccc1-n1nc(C(=O)O)cc1-c1ccccc1,-3,-14,-30,-5,-86,i,3,2,
CCc1ccc(/C=C/C(=O)c2c(C)cc(C)[nH]c2=O)cc1,8,15,·,10,·,i,-4,-10,
CCSc1ccc(C(=O)Nc2cccc(C)n2)cc1[N+](=O)[O-],0,-5,·,0,-1,i,4,2,
COc1ccccc1NC(=O)CCN1C(=O)/C(=C/c2cc(OC)c(OC)c(OC)c2)SC1=S,-3,-3,-3,25,4,i,26,17,
CCOc1ccc(Br)cc1C(=O)N/N=C/c1cccnc1,7,13,-15,-9,0,i,-6,-2,
